ALR inh: inhibitors of human sulfhydryl oxidase ALR; purified ALR, DTT oxidation, H2O2 HRP-luminol luminescence; P55789; actives 3.8% (n = 290,000); inhibition, % (no concentration beside the values);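 active = mean and each replicate at 75% or more; inconclusive = only one of the two met; inactive = neither met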;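 also: stock transfer was 7.5 nL into about 7.5 µL; 0% = neutral wells and 100% = wells with inactivated enzyme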
Target sequence (P55789 whole entry, looked up): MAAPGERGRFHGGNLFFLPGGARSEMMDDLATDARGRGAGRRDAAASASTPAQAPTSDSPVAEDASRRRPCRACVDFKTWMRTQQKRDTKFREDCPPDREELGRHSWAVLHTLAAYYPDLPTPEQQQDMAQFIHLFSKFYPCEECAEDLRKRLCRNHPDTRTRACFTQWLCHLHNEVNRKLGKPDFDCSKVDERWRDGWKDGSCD
FGF22 binding: shifts melting point of recombinant human FGF22; Q9HCT0; recombinant FGF22 thermal shift, SYPRO orange fluorescence; percent of sucrose octasulfate shift, DMSO zero; calls only at 9.99 µM; actives 1.5% (n = 340,000); AID 651658;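 active = melting point raised past a set limit in the mean and every replicate; inconclusive = no clear call; three in four hits are not shown here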
Target sequence (Q9HCT0 whole entry, looked up): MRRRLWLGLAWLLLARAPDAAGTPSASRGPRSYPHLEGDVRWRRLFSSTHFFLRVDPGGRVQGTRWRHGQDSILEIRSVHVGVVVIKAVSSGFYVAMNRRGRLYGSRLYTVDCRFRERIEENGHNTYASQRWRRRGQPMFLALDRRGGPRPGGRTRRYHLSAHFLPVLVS
T cruzi inh: T. cruzi replication inhibition. T. cruzi beta-gal in NIH3T3, luminescence, 90 h. inhibition, % (test concentration not listed). actives 1.4% (n = 300,000). AID 1885;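 active = mean inhibition across valid replicates above about 55%, limit read from the data; inconclusive = mean below that limit but half or more replicates reach it; inactive = mean below it, under half of replicates reach it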;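 also: signal also drops with host cell toxicity which is not excluded here; 0% = plate median of DMSO wells and 100% = zero luminescence signal; higher percent means less beta-gal luminescence so fewer parasites; stock transfer was 50 nL into about 50 µL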
Ecoli rRNA inh: inhibitors of bacterial rRNA selective over humanized ribosomes | GFP signal change (wild-type ribosome), % (no concentration beside the values) | actives 1.6% (n = 350,000) | AID 720706 | E. coli WT GFP vs humanized-ribosome RFP mutants, fluorescence, 24 h; active compounds read low; DMSO median 0, no signal -100;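 active = significant combined selectivity score with lowered wild-type GFP, culture density cut under 30%, mutant RFP and density less affected; inactive = any of these conditions unmet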; also: one replicate is shown; some compounds called inactive have numbers as strong as hits
MLL AF4-AF9 inh: MLL-AF4/AF9 protein interaction inhibition. AlphaScreen, biotin-AF4 peptide binding to FLAG-AF9. inhibition, % at 10 µM. actives 0.47% (n = 350,000). AID 651704;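 active = every replicate reaching a set inhibition limit, whatever the replicate mean, cut at about 25% in these data; inconclusive = mean inhibition reaches that limit but some replicates miss it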;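 also: 0% = plate neutral control median and 100% = total signal loss; the record names both 10 and 1 µM as test concentration; the first replicate is given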
Target sequence (P42568 whole entry, looked up): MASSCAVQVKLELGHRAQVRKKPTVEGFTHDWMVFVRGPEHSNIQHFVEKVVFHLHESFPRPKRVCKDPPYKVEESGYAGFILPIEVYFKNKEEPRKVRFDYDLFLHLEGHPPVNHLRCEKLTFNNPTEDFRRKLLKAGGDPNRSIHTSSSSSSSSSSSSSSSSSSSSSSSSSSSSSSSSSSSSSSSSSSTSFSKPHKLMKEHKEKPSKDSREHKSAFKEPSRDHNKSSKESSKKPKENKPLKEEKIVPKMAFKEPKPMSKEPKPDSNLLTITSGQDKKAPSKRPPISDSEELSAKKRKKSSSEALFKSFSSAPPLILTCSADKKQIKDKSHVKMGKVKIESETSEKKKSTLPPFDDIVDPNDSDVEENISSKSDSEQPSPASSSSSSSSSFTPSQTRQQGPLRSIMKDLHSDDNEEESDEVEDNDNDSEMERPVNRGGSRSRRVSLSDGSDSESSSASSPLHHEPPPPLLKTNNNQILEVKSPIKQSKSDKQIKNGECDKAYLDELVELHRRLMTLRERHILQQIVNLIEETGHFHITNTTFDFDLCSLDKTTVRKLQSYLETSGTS
RanGTP-Imp inh: disruptors of Ran-importin-beta complex formation – biochemical, FRET, CFP-Ran, YFP-importin-beta, homogeneous, primary screen; cell-free CFP-Ran/YFP-importin-beta FRET ratio; inhibition, % (concentration not given with the values); actives 1.1% (n = 300,000);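 active = most replicates above 15%; inconclusive = exactly half above 15%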;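 also: 0% = DMSO wells and 100% = Ran loaded with GDP instead of GTP; wells of about 40 µL received 100 nL stock; the first replicate is given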
Calb FLC: C. albicans growth modulation with fluconazole | growth inhibition, % (test concentration not listed) | C. albicans CaCi-2 (fluconazole-resistant clinical isolate) + fluconazole, Alamar Blue growth, 48 h | actives 0.57% (n = 300,000);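 active = most replicates above 75%; inconclusive = exactly half above 75%; inactive = most below 75%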;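 also: all wells also contain fluconazole at 8 µg/ml as a sub-toxic cotreatment; 0% = median of DMSO wells and 100% = median of geldanamycin control wells; wells of about 8 µL received 7.5 nL stock; the first replicate is given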
Beta cell apopt: blocks beta cell apoptosis. INS-1E cytokine-induced death, ATP luminescence, 48 h; percent of positive-control rescue, neutral wells zero. protection from apoptosis, % (concentration not given with the values). actives 0.8% (n = 300,000). AID 435005;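 active = all replicates at 75% or more, or half of them and the mean; inconclusive = half reach 75% but not the mean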;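 also: 0% = cytokine-treated negative control wells and 100% = positive control rescue; higher means more ATP so stronger rescue from cytokine killing; wells of about 40 µL received 100 nL stock; the first replicate is given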
Ecoli rRNA inh OD600: further read-out of Ecoli rRNA inh, marked with its call; OD600 change, %; measured here: OD600 growth;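 optical density of the mix in the first replicate; 0 = DMSO median and -100 = no signal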
Ecoli rRNA inh RFP: second read-out of Ecoli rRNA inh, no call of its own (marks repeat the call); RFP signal change, %; measured here: RFP humanized mutant strains;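 first replicate; 0 = DMSO median and -100 = no signal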
* hit, by the source's call; i = inactive; u = inconclusive; x = not tested or not shown; & = joins results of further samples.

SMILES	ALR inh	FGF22 binding	T cruzi inh	Ecoli rRNA inh	Ecoli rRNA inh OD600	Ecoli rRNA inh RFP	MLL AF4-AF9 inh	RanGTP-Imp inh	Calb FLC	Beta cell apopt
Cc1cccc(NC(=O)c2cccc(Cn3cc(Br)c([N+](=O)[O-])n3)c2)c1C	-7	x	58*	x	x	x	x	1.0	1	6
CC1C=CCC2C(=O)N(c3ccccc3OC(=O)c3ccco3)C(=O)C12 (stereo not drawn)	x	i	-7	7	0	-7.4	-1.1	2.5	1	1
Cn1cccc1CC(=O)N/N=C/c1ccco1	-14	i	-5	20	10	1.2	x	-1.2	0	-6
O=C(CCCc1c[nH]c2ccccc12)NCC1COc2ccccc2O1 (stereo not drawn)	98*	i	2	-32	-33	4.2	0.6	-7.9	2	-18
COc1ccc(C(=O)NCCS(=O)(=O)NCCc2ccccc2)cc1	-3	i	-1	0	1	-0.8	1.7	u	0	2
C=CCn1c(COc2cccc3ccc(C)nc23)nnc1SCC(N)=O	-5	x	-10	5	4	-6.5	x	4.2	-2	-5
COc1cc2c(cc1OC)CN(c1ccc3ccccc3n1)CC2	15	i	24	-1	-19	-0.4	0.5	5.4	18	14
CC(=O)Nc1ccc(NC(=O)C(C)OC(=O)CCC2CCCC2)cc1 (stereo not drawn)	-6	i	-7	1	9	2.8	1.0	-5.0	0	5
COc1ccc(/C=N/NC(=O)c2cccnc2)cc1O	88*	i	-12	4	3	3.6	4.6	1.2	-23	-3
C[C@@H]1CC=C[C@H]2[C@H]1C(=O)N(Cc1ccccc1)[C@H]2c1ccc(-c2cc3ccccc3s2)cc1F	5	i	28	0	9	4.1	-0.7	0.4	2	5
O=C(c1ccco1)C(O)c1ccco1 (stereo not drawn)	-4	i	5	11	20	-0.4	-3.0	-2.7	0	-8
Cn1c(SCC(=O)N2c3ccccc3CCc3ccccc32)nnc1-c1cc2ccccc2cc1O	x	i	5	1	8	6.0	-2.3	u	10	1
CCOC(=O)CSc1nc(NC#N)nc(N(CC)CC)n1	5	x	2	x	x	x	x	-0.1	0	-4
CCOC(=O)c1c(C)nn(-c2ncccc2NC(=O)NC(C)C)c1C	x	i	3	6	15	1.6	x	1.3	2	-5
COc1ccc(-c2noc(CN(C)C(=O)c3ccc4c(c3)OCO4)n2)cc1OC	-15	i	-6	2	-2	-3.4	-0.8	5.0	0	x
COc1ccccc1N(Cc1ccccc1)S(=O)(=O)c1cccc(C(=O)N2CCCCC2)c1	-5	i	x	-24	-44	2.7	1.5	x	x	1
O=C(O)c1cccc(-n2cccc2/C=C2\SC(=O)N(Cc3ccccc3F)C2=O)c1	20	i	2	-14	-12	6.3	-0.8	2.4	24	2
CC(=O)Nc1cccc(NC(=O)CSc2nn3c(=O)c(C)nnc3s2)c1	98*	i	10	6	11	0.4	1.0	-0.7	0	-5
CC(C)C(=O)NS(=O)(=O)c1ccc(NS(C)(=O)=O)cc1	-5	i	-11	16	5	2.9	5.9	-0.4	0	-12
S=C(NCc1ccc2c(c1)OCO2)NCc1ccco1	-3	i	-5	12	7	4.3	2.3	-0.3	-17	-17
COC(=O)c1c(NS(C)(=O)=O)sc2c1CCCC2	65	x	-11	x	x	x	x	-5.9	34	-1
CN=C(c1ccc(C)cc1)n1c(=S)nc(-c2ccc(C)cc2)n(C)c1=S	-19	i	15	6	1	-1.5	-3.2	3.4	-1	-2
O=C(NCc1ccccn1)c1cc(-c2ccc(Br)cc2)nc2ccccc12	-3	i	-14	15	14	-9.2	-2.5	u	8	4
Cc1[nH]c(=O)[nH]c(=O)c1S(=O)(=O)N(C)Cc1ccccc1	-6	x	-7	x	x	x	x	-4.5	-9	-8
CCC(C)Sc1nc2c(c(=O)n1C)SC(C)C2 (stereo not drawn)	-15	i	5	-3	-5	-3.8	2.9	-1.3	-2	3
O=C(C[C@@H]1C/C=C\CC[C@@H](Cc2ccc(F)cc2)C(=O)OC[C@@H]2CCCN2C1=O)NCCO	-2	i	x	4	-3	3.6	9.6	x	x	-1
CCNC(=S)N1CCCC(c2nc3ccc(C)cc3[nH]2)C1 (stereo not drawn)	-7	i	-25	0	0	0.4	-0.7	-5.0	16	-1
CC#CC[N+](C)(C)CCCCCCCCCC	x	i	-16	x	x	x	-3.5	-0.8	-12	x
CN(C(=O)CC1C(=O)NCCN1Cc1ccc(F)c(F)c1)C1CCOCC1 (stereo not drawn)	-47	i	4	19	12	1.7	-3.1	5.4	-1	-5
O=C1CC(c2ccccc2F)c2cc3c(cc2N1)CCC3 (stereo not drawn)	-3	x	-4	x	x	x	x	5.1	11	x

12 of the compounds above, with two lines to a compound.
Values run as follows: ALR inh | FGF22 binding | T cruzi inh | Ecoli rRNA inh | Ecoli rRNA inh OD600 | Ecoli rRNA inh RFP | MLL AF4-AF9 inh | RanGTP-Imp inh | Calb FLC | Beta cell apopt
> CC(C)C(=O)NS(=O)(=O)c1ccc(NS(C)(=O)=O)cc1
    -5 | i | -11 | 16 | 5 | 2.9 | 5.9 | -0.4 | 0 | -12
> S=C(NCc1ccc2c(c1)OCO2)NCc1ccco1
    -3 | i | -5 | 12 | 7 | 4.3 | 2.3 | -0.3 | -17 | -17
> COC(=O)c1c(NS(C)(=O)=O)sc2c1CCCC2
    65 | x | -11 | x | x | x | x | -5.9 | 34 | -1
> CN=C(c1ccc(C)cc1)n1c(=S)nc(-c2ccc(C)cc2)n(C)c1=S
    -19 | i | 15 | 6 | 1 | -1.5 | -3.2 | 3.4 | -1 | -2
> O=C(NCc1ccccn1)c1cc(-c2ccc(Br)cc2)nc2ccccc12
    -3 | i | -14 | 15 | 14 | -9.2 | -2.5 | u | 8 | 4
> Cc1[nH]c(=O)[nH]c(=O)c1S(=O)(=O)N(C)Cc1ccccc1
    -6 | x | -7 | x | x | x | x | -4.5 | -9 | -8
> CCC(C)Sc1nc2c(c(=O)n1C)SC(C)C2 (stereo not drawn)
    -15 | i | 5 | -3 | -5 | -3.8 | 2.9 | -1.3 | -2 | 3
> O=C(C[C@@H]1C/C=C\CC[C@@H](Cc2ccc(F)cc2)C(=O)OC[C@@H]2CCCN2C1=O)NCCO
    -2 | i | x | 4 | -3 | 3.6 | 9.6 | x | x | -1
> CCNC(=S)N1CCCC(c2nc3ccc(C)cc3[nH]2)C1 (stereo not drawn)
    -7 | i | -25 | 0 | 0 | 0.4 | -0.7 | -5.0 | 16 | -1
> CC#CC[N+](C)(C)CCCCCCCCCC
    x | i | -16 | x | x | x | -3.5 | -0.8 | -12 | x
> CN(C(=O)CC1C(=O)NCCN1Cc1ccc(F)c(F)c1)C1CCOCC1 (stereo not drawn)
    -47 | i | 4 | 19 | 12 | 1.7 | -3.1 | 5.4 | -1 | -5
> O=C1CC(c2ccccc2F)c2cc3c(cc2N1)CCC3 (stereo not drawn)
    -3 | x | -4 | x | x | x | x | 5.1 | 11 | x

Some of these compounds in order of their number in Ecoli rRNA inh RFP, lowest first.
structure	Ecoli rRNA inh RFP
CCC(C)Sc1nc2c(c(=O)n1C)SC(C)C2 (stereo not drawn)	-3.8
CC(C)C(=O)NS(=O)(=O)c1ccc(NS(C)(=O)=O)cc1	2.9
O=C(C[C@@H]1C/C=C\CC[C@@H](Cc2ccc(F)cc2)C(=O)OC[C@@H]2CCCN2C1=O)NCCO	3.6

(continued)
SMILES	ALR inh	FGF22 binding	T cruzi inh	Ecoli rRNA inh	Ecoli rRNA inh OD600	Ecoli rRNA inh RFP	MLL AF4-AF9 inh	RanGTP-Imp inh	Calb FLC	Beta cell apopt
CCOc1cc(C)c(Cl)cc1S(=O)(=O)NC1CC(C)(C)NC(C)(C)C1	-18	x	0	x	x	x	x	u	-10	-1
CCN1C(=O)C(CC(=O)Nc2ccc(OC)cc2)N(CCc2ccccc2F)C1=S (stereo not drawn)	-9	i	19	x	x	x	-1.4	-1.2	-14	-6
COc1cccc(OCc2cc(C(=O)N3CCN(c4ccccc4O)CC3)no2)c1	63	i	-16	-4	-12	-1.0	0.3	-0.2	-2	2
CCN(CC)c1ccc(NC(=O)CC2Oc3ccccc3NC2=O)c(C)c1 (stereo not drawn)	98*	i	-9	-2	-7	0.3	4.4	-3.5	3	x
CCCCC(=O)O[C@]1(C(=O)CO)CC[C@H]2[C@@H]3CCC4=CC(=O)CC[C@]4(C)[C@H]3[C@@H](O)C[C@@]21C	-4	i	0	-34	-55	-5.1	-3.7&-5.1	u	x	1
O=C(NC1CCCCC1)N1CCCC1	0	x	-25	x	x	x	x	4.7	9	-3
COCC(=O)Nc1ccc2c(c1)OCC(=O)N2Cc1ccc(C)cc1	-32	i	6	7	7	2.6	-3.8	0.3	3	-7
CC1CCC(NC(=O)c2ccc(S(C)(=O)=O)cc2)CC1 (stereo not drawn)	1	i	-6	7	10	1.3	-1.5	3.1	-4	-3
Nc1c(-c2ccc3c(c2)OCCO3)oc2ccccc2c1=O	-4	i	-4	3	3	-0.8	-0.4	6.0	7	0
Cc1c(OC(C)C(=O)NCC(O)c2ccccc2)ccc2c3c(c(=O)oc12)CCCC3 (stereo not drawn)	-5	i	11	-26	-40	-0.6	-1.8	4.2	8	14
COc1cc(/C=C(/C#N)c2nc3ccccc3[nH]2)ccc1OC(=O)c1ccco1	1	x	-22	x	x	x	x	28*	17	7
CCC1Sc2ccc(S(=O)(=O)CCC(=O)Nc3ccccc3Br)cc2NC1=O (stereo not drawn)	21	i	5	9	9	1.1	1.4	-3.1	-11	-2
COCCN1CCN(C(=O)c2ccc3oc(CCc4ccccc4)nc3c2)CC1	-2	i	-1	5	6	1.4	-0.8	u	-5	-10
O=C(CCCn1cncn1)N1CCCC(N2CCN(c3ccc(F)cc3)CC2)C1 (stereo not drawn)	21	i	-19	x	x	x	-0.5	-2.0	3	0
Cc1cc2ncn(CCC(=O)NC(C)(C)C)c2cc1C	6	i	-17	9	-5	-0.4	0.8	1.0	0	x
O=C1C(=Cc2cccn2-c2ccc(O)cc2)C(=O)c2ccccc21	-9	x	0	x	x	x	x	-34	u	-4
Nn1c(SCc2cccc(Cl)c2)nnc1-c1ccncc1	11	i	-11	8	6	-2.5	2.9	3.6	-1	4
O=C(COC(=O)c1cccnc1)Nc1ccc(F)cc1	1	x	-1	x	x	x	x	4.3	3	-4
O=C(NC1CCCCC1)C(c1ccc(F)cc1)N(CCc1ccccc1)C(=O)CN1C(=O)c2ccccc2S1(=O)=O (stereo not drawn)	x	i	-3	x	x	x	-3.9	-0.2	-6	-5
COC(=O)c1c(C)oc(C)c1S(=O)(=O)Nc1ccccc1	-3	i	-4	7	-7	0.8	-7.4	-0.9	9	-2
N#Cc1cccc(OCC(=O)NC(=O)NCc2ccccc2)c1	0	i	6	4	2	0.3	0.1	0.7	-5	0
O=C(CN(C1CCCCC1)S(=O)(=O)c1ccc(F)cc1)Nc1ccc2c(c1)OCO2	-10	x	-4	x	x	x	x	-4.6	-19	6
O=C(CC(c1ccc(F)cc1)c1ccco1)N1CCCC1 (stereo not drawn)	3	x	2	x	x	x	x	2.2	4	7
CCOc1ccc(CC(=O)C2C(=O)CCCC2=O)cc1OCC	0	x	0	x	x	x	x	0.0	-2	-5

From PubChem

Not all compounds are listed; rates above refer to the full screens.
